Yeast UUG start: modulators of yeast start codon fidelity, primary screen, whole organism, S. cerevisiae, single point, plate reader. S. cerevisiae UUG-firefly luciferase reporter, luminescence/redox ratio. activity score, % at 18.7 µM. 350,000 compounds, 0.13% hits. AID 602363, 2012;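 active = replicate mean at a twofold rise or more, about +100% in these data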;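 also: firefly luciferase made from a UUG start codon reports start codon fidelity; reporter light over untreated wells divided by growth signal over untreated wells; some hits fall short of that in this replicate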
HIV Env fusion: inhibitors of HIV-1 Env-driven cell-cell fusion, primary screen, HeLa-JRFL effector, CEM21 target cells, luciferase | AID 651610, 2012 | inhibition, % at 12.3 µM | 360,000 compounds, 1.1% hits;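 active = mean replicate inhibition score of at least 50 and every replicate individually at or above 50; inconclusive = only one of the two criteria met; inactive = mean below 50 and not all replicates reaching 50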;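 also: 0% = plate neutral controls and 100% = maraviroc near 300 nM; one replicate is shown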
* hit, by the source's call; ? = inconclusive; [ ] = remark or other dose. An excerpt (hit frequency here may not be typical).

SMILES | Yeast UUG start | HIV Env fusion
Cc1noc(C)c1S(=O)(=O)N(C)C[C@@H]1Oc2ccc(NS(=O)(=O)c3cn(C)cn3)cc2CC(=O)N([C@@H](C)CO)C[C@H]1C | 18.2 | -9.3[16.7 µM]
O=C(Cc1ccccn1)NCC[C@@H]1CC[C@@H](NS(=O)(=O)c2ccccc2)[C@@H](CO)O1 | 12.7 | 0.6[16.7 µM]
CN(C)CC(=O)Nc1ccc2c(c1)[C@H]1C[C@@H](CC(=O)NCCN3CCCCC3)O[C@@H](CO)[C@H]1O2 | -14.0 | 1.6[16.7 µM]
CCCNC(=O)N(C)C[C@@H]1Oc2ncc(C#CC(C)C)cc2C(=O)N([C@H](C)CO)C[C@H]1C | -0.4 | -11.0[16.7 µM]
CC(C)CC#Cc1ccc2c(c1)O[C@@H](CN(C)C(=O)c1ccccc1F)[C@H](C)CN([C@@H](C)CO)S2(=O)=O | -5.1 | ?
O=C(Nc1ccccc1)N[C@H]1CC[C@@H](CCn2cc(C3(O)CCCC3)nn2)O[C@@H]1CO | 5.3 | 4.4[16.7 µM]
C[C@@H]1CCCCO[C@@H](CN(C)Cc2ccc(Cl)c(Cl)c2)[C@H](C)CN([C@H](C)CO)C(=O)c2cc(NC(=O)C3CCCCC3)ccc2O1 | 9.1 | 17.3[16.7 µM]
O=C(N[C@@H]1CC[C@@H](CCNS(=O)(=O)c2cccc(Cl)c2)O[C@H]1CO)c1ccc(F)cc1 | 4.5 | 12.8[16.7 µM]
O=C(Nc1ccccc1F)N[C@H]1CC[C@@H](CCNC(=O)C2CC2)O[C@H]1CO | -3.7 | -1.2[16.7 µM]
Cc1ccc(S(=O)(=O)Nc2ccc3c(c2)CC(=O)N([C@H](C)CO)C[C@@H](C)[C@H](CN(C)S(=O)(=O)c2cccs2)O3)cc1 | -2.5 | -16.8[16.7 µM]
COC(=O)[C@@]1(Cc2ccccc2)N=C(c2ccc(OCCCO)cc2)O[C@H]1c1ccccc1 | 7.4 | 26.4[16.7 µM]
C[C@@H]1CN([C@H](C)CO)C(=O)c2cc(-c3ccccc3F)cnc2O[C@H]1CN(C)C(=O)C1CCCCC1 | -5.0 | -11.9[16.7 µM]
COc1ccccc1CNC(=O)C[C@H]1CC[C@@H]2[C@@H](COc3ccc(NC(C)=O)cc3C(=O)N2C)O1 | 12.5 | -15.7[16.7 µM]
C[C@H](O)C#Cc1ccc2c(c1)O[C@@H](CN(C)C(=O)C1CCCCC1)[C@H](C)CN([C@H](C)CO)S2(=O)=O | 6.6 | -19.8[16.7 µM]
COc1ccc(NC(=O)N(C)C[C@@H]2OCCCC[C@H](C)Oc3ccc(NS(=O)(=O)c4c(C)noc4C)cc3C(=O)N([C@H](C)CO)C[C@@H]2C)cc1 | 9.6 | -27.6[16.7 µM]
Cc1noc(C)c1NC(=O)Nc1ccc2c(c1)C(=O)N([C@@H](C)CO)C[C@H](C)[C@H](CN(C)Cc1ccncc1)OCCCC[C@H](C)O2 | -2.6 | -7.8[16.7 µM]
C[C@@H]1CN([C@H](C)CO)C(=O)c2cccc(NC(=O)Nc3cccc4ccccc34)c2O[C@@H]1CN(C)S(=O)(=O)c1ccccc1 | -11.8 | -2.7[16.7 µM]
Cc1ccc(S(=O)(=O)Nc2ccc3c(c2)C(=O)N([C@H](C)CO)C[C@H](C)[C@H](CN(C)CC2CCCCC2)OCCCC[C@@H](C)O3)cc1 | 2.9 | -6.8[16.7 µM]
COCC(=O)N(C)C[C@H]1Oc2cc(-c3cccc(F)c3)ccc2S(=O)(=O)N([C@H](C)CO)C[C@H]1C | 20.4 | 10.3[16.7 µM]
COCCNC(=O)C[C@H]1CC[C@H]2[C@@H](COc3ccc(NC(=O)C4CCCC4)cc3C(=O)N2C)O1 | 3.3 | 9.7[16.7 µM]

Part of the list above, as tab-separated lines:
molecule	Yeast UUG start	HIV Env fusion
O=C(Cc1ccccn1)NCC[C@@H]1CC[C@@H](NS(=O)(=O)c2ccccc2)[C@@H](CO)O1	12.7	0.6[16.7 µM]
O=C(Nc1ccccc1)N[C@H]1CC[C@@H](CCn2cc(C3(O)CCCC3)nn2)O[C@@H]1CO	5.3	4.4[16.7 µM]

A different layout for some results above.
Below each SMILES: Yeast UUG start	HIV Env fusion
Cc1ccc(S(=O)(=O)Nc2ccc3c(c2)CC(=O)N([C@H](C)CO)C[C@@H](C)[C@H](CN(C)S(=O)(=O)c2cccs2)O3)cc1
    -2.5	-16.8[16.7 µM]
O=C(Nc1ccccc1)N[C@H]1CC[C@@H](CCn2cc(C3(O)CCCC3)nn2)O[C@@H]1CO
    5.3	4.4[16.7 µM]

More entries follow:
SMILES | Yeast UUG start | HIV Env fusion
COc1ccc(S(=O)(=O)N[C@@H]2CC[C@H](CC(=O)NCCc3ccccc3)O[C@H]2CO)cc1 | 0.3 | -3.0[16.7 µM]
COc1ccc(NC(=O)Nc2ccc3c(c2)CC(=O)N([C@H](C)CO)C[C@H](C)[C@@H](CN(C)C(=O)NC2CCCCC2)O3)cc1 | 7.5 | 5.5[16.7 µM]
C[C@H]1CN([C@@H](C)CO)C(=O)c2cccc(NC(=O)Nc3ccc4c(c3)OCO4)c2O[C@H]1CN(C)Cc1ccc(C(=O)O)cc1 | -2.2 | -91.7[16.7 µM]
C[C@@H]1CN([C@H](C)CO)C(=O)c2cc(-c3ccccc3)cnc2O[C@H]1CN(C)C(=O)Nc1ccccc1 | 1.5 | ?
C[C@@H]1CN([C@@H](C)CO)S(=O)(=O)c2ccc(C#CC3CC3)cc2O[C@@H]1CN(C)C(=O)c1cnccn1 | 10.3 | 5.9[16.7 µM]
COc1ccc(NC(=O)N(C)C[C@H]2OCCCC[C@@H](C)Oc3ccc(NC(=O)c4ccncc4)cc3C(=O)N([C@@H](C)CO)C[C@@H]2C)cc1 | 3.6 | 11.1[16.7 µM]
Cc1ccc(S(=O)(=O)N(C)C[C@@H]2Oc3ncc(C#CC(C)(C)O)cc3C(=O)N([C@H](C)CO)C[C@@H]2C)cc1 | 9.4 | 5.2[16.7 µM]
CCCNC(=O)N(C)C[C@H]1Oc2cc(C#C[C@@H](C)O)ccc2S(=O)(=O)N([C@@H](C)CO)C[C@H]1C | -4.3 | -5.2[16.7 µM]
O=C(Nc1cccc(Cl)c1)N[C@H]1CC[C@H](CCNC(=O)C2CCCCC2)O[C@@H]1CO | 4.5 | -26.6[16.7 µM]
C[C@@H]1CCCCO[C@@H](CN(C)Cc2ccc(C(=O)O)cc2)[C@@H](C)CN([C@@H](C)CO)C(=O)c2cc(NC(=O)Nc3ccc(F)cc3)ccc2O1 | 24.5 | 2.2[16.7 µM]
CC(C)C#Cc1cnc2c(c1)C(=O)N([C@@H](C)CO)C[C@H](C)[C@H](CN(C)Cc1ccccn1)O2 | -8.8 | -1.0[16.7 µM]
C[C@H]1CN([C@@H](C)CO)C(=O)Cc2cc(NS(=O)(=O)c3ccc(F)cc3)ccc2O[C@H]1CN(C)Cc1ccc(C(F)(F)F)cc1 | 11.6 | -1.6[16.7 µM]
COc1ccc(S(=O)(=O)Nc2ccc3c(c2)C(=O)N([C@@H](C)CO)C[C@H](C)[C@@H](CN(C)Cc2ccccc2)O3)cc1 | 5.1 | -15.6[16.7 µM]
C[C@H](CO)N1C[C@H](C)[C@H](CN(C)S(=O)(=O)c2cn(C)cn2)OCCCC[C@H](C)Oc2ccc(NC(=O)Cc3ccccc3)cc2C1=O | 24.6 | -19.6[16.7 µM]
COc1ccc(S(=O)(=O)N(C)C[C@H]2OCCCC[C@@H](C)Oc3ccc(NC(=O)c4ccncc4)cc3C(=O)N([C@H](C)CO)C[C@@H]2C)cc1 | 22.2 | 13.6[16.7 µM]
C[C@@H]1CN([C@H](C)CO)C(=O)c2cc(NC(=O)Nc3ccc(C(F)(F)F)cc3)ccc2O[C@@H](C)CCCCO[C@H]1CN(C)S(=O)(=O)c1cn(C)cn1 | -11.1 | 25.8[16.7 µM]
CCC(=O)N1C[C@@H](O)COC[C@@H]2O[C@H](CC(=O)N3CCCCC3)CC[C@H]21 | -6.2 | -16.2[16.7 µM]
Cc1ccc(S(=O)(=O)N(C)C[C@H]2OCCCC[C@H](C)Oc3ccc(NC(=O)c4ccccc4)cc3C(=O)N([C@@H](C)CO)C[C@H]2C)cc1 | -0.3 | -30.2[16.7 µM]
C[C@H]1CN([C@@H](C)CO)C(=O)c2cc(NC(=O)C3CC3)ccc2O[C@H]1CN(C)S(=O)(=O)c1ccc(F)cc1 | 12.9 | 11.0[16.7 µM]
COc1ccc(S(=O)(=O)N(C)C[C@H]2OCCCC[C@@H](C)Oc3ccc(NC(=O)CCC(F)(F)F)cc3C(=O)N([C@@H](C)CO)C[C@H]2C)cc1 | 1.9 | -6.5[16.7 µM]
C[C@@H](NC(=O)C[C@@H]1CC[C@@H](NC(=O)C2CC2)[C@H](CO)O1)c1ccccc1 | -24.8 | 2.6[16.7 µM]
O=C(Nc1cccc(F)c1)N[C@@H]1CC[C@H](CCn2cc(Cc3ccccc3)nn2)O[C@@H]1CO | -10.5 | -62.5[16.7 µM]
Cc1ccc(S(=O)(=O)NCC[C@@H]2CC[C@@H](NC(=O)c3cccc(F)c3)[C@@H](CO)O2)cc1 | -7.8 | 8.6[16.7 µM]
O=C(C[C@H]1CC[C@@H](NC(=O)c2ccncc2)[C@H](CO)O1)NCC1CC1 | 6.4 | 10.0[16.7 µM]
O=C(Nc1ccccc1F)N[C@@H]1CC[C@@H](CCNC(=O)C2CCCC2)O[C@H]1CO | -1.3 | 12.6[16.7 µM]
C[C@H]1CN([C@@H](C)CO)C(=O)c2cc(C#CC3(O)CCCC3)cnc2O[C@@H]1CN(C)C(=O)Cc1ccncc1 | -1.0 | 2.4[16.7 µM]
COCC#Cc1ccc2c(c1)O[C@H](CN(C)Cc1ccc3c(c1)OCO3)[C@@H](C)CN([C@@H](C)CO)S2(=O)=O | 2.2 | 18.4[16.7 µM]
C[C@@H]1CN([C@@H](C)CO)C(=O)Cc2cc(NC(=O)Nc3cccc4ccccc34)ccc2O[C@H]1CN(C)S(=O)(=O)c1cn(C)cn1 | -2.7 | 24.1[16.7 µM]
CN1C(=O)c2cc(NC(=O)c3ccc(F)cc3)ccc2OC[C@H]2O[C@H](CC(=O)NCC3CCCCC3)CC[C@H]21 | 41.0 | 41.6[16.7 µM]
C[C@H](CO)N1C[C@H](C)[C@@H](CN(C)Cc2ccc3c(c2)OCO3)Oc2ccc(NS(=O)(=O)c3ccc(F)cc3)cc2CC1=O | 5.7 | 9.2[16.7 µM]
C[C@H](CO)N1C[C@H](C)[C@@H](CN(C)Cc2ccccc2)Oc2ncc(-c3ccccc3)cc2C1=O | -0.5 | -9.6[16.7 µM]
COc1ccc(S(=O)(=O)Nc2ccc3c(c2)C(=O)N([C@H](C)CO)C[C@H](C)[C@H](CN(C)S(=O)(=O)c2c(C)noc2C)OCCCC[C@H](C)O3)cc1 | -5.9 | -13.5[16.7 µM]
C[C@@H]1CN([C@H](C)CO)C(=O)c2cc(C#Cc3ccccc3F)cnc2O[C@@H]1CN(C)S(C)(=O)=O | -9.2 | 24.0[16.7 µM]
C[C@H]1CN([C@@H](C)CO)S(=O)(=O)c2ccc(-c3ccccc3)cc2O[C@@H]1CN(C)Cc1ccccn1 | 3.2 | -3.5[16.7 µM]
CCC(=O)N[C@@H]1C=C[C@H](CC(=O)NCc2ccccc2OC)O[C@H]1CO | -16.6 | 6.6[16.7 µM]
CCCC(=O)Nc1ccc2c(c1)C(=O)N(C)C[C@H](OC)[C@H](C)CN(C(C)=O)[C@@H](C)CO2 | 5.0 | -34.0[16.7 µM]
CC(C)NC(=O)Nc1ccc2c(c1)C(=O)N([C@H](C)CO)C[C@H](C)[C@H](CN(C)S(=O)(=O)c1cccs1)OCCCC[C@H](C)O2 | 15.0 | -24.4[16.7 µM]
C[C@H](CO)N1C[C@H](C)[C@H](CN(C)S(C)(=O)=O)Oc2cc(C#Cc3ccc(F)cc3)ccc2S1(=O)=O | 12.3 | -12.4[16.7 µM]
O=C(C[C@@H]1C[C@@H]2c3cc(NC(=O)NC4CCCC4)ccc3O[C@@H]2[C@@H](CO)O1)NCc1cc(F)ccc1F | -7.4 | -0.4[16.7 µM]
Cc1noc(C)c1NC(=O)N(C)C[C@@H]1Oc2ccc(NC(=O)C3CC3)cc2C(=O)N([C@@H](C)CO)C[C@@H]1C | -10.0 | 22.8[16.7 µM]
Cc1ccc(S(=O)(=O)N(C)C[C@H]2OCCCC[C@@H](C)Oc3ccc(NS(=O)(=O)c4c(C)noc4C)cc3C(=O)N([C@H](C)CO)C[C@H]2C)cc1 | 2.3 | 38.2[16.7 µM]
C[C@@H]1CN([C@@H](C)CO)S(=O)(=O)c2ccc(/C=C/c3ccccc3)cc2O[C@H]1CN(C)C(=O)c1ccc2c(c1)OCO2 | -10.6 | 14.6[16.7 µM]
Cc1noc(C)c1S(=O)(=O)Nc1ccc2c(c1)C(=O)N([C@H](C)CO)C[C@H](C)[C@H](CN(C)S(=O)(=O)c1cccs1)OCCCC[C@@H](C)O2 | 11.1 | -34.5[16.7 µM]
COc1ccc(NC(=O)COC(=O)c2ccc(S(=O)(=O)N(C)c3ccccc3OC)cc2)cc1 | -22.4 | 7.6
C[C@H](CO)N1C[C@H](C)[C@H](CN(C)Cc2ccc(Cl)c(Cl)c2)Oc2ccc(NC(=O)Nc3ccc4c(c3)OCO4)cc2CC1=O | -3.4 | 16.7[16.7 µM]
CNC[C@H]1Oc2c(NC(=O)C3CCOCC3)cccc2C(=O)N([C@H](C)CO)C[C@H]1C | -3.9 | -34.3[16.7 µM]
COc1ccccc1-c1ccc2c(c1)O[C@H](CN(C)C(=O)c1ccncc1)[C@H](C)CN([C@H](C)CO)S2(=O)=O | -7.1 | -14.1[16.7 µM]

Bioassay records from PubChem.
